Source: PubChem BioAssay (ICCB-Longwood Screening Facility, Harvard Medical School)
Sa growth 42C – S. aureus growth inhibition; relative growth, % (test concentration not listed); AID 720641; S. aureus RN4220 growth, OD600, 20 h, 42 °C; stronger effect = lower value; 0.53% of 170,000 active;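 active = growth at 42 °C up to 50% and 20 or more points under that at 30 °C, or under 10% at both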;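 note: 300 nL library stock went into each well; scaled to the means of positive and negative controls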
GIV Gai3 FP – inhibitors of GIV GBA-motif binding to rat Galpha-i3; 0.42% of 210,000 active; Galpha-i3/FITC-GIV peptide fluorescence polarization, 90 min; stronger effect = lower value; scaled: aluminum fluoride 0%, vehicle 100%; percent of control (FP), % (no concentration beside the values); P08753;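 active = replicate mean at 85% of control or lower, very high polarization wells dropped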;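 note: wells of about 15 µL received 100 nL stock; the first replicate is given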
Target sequence (P08753 whole entry, looked up): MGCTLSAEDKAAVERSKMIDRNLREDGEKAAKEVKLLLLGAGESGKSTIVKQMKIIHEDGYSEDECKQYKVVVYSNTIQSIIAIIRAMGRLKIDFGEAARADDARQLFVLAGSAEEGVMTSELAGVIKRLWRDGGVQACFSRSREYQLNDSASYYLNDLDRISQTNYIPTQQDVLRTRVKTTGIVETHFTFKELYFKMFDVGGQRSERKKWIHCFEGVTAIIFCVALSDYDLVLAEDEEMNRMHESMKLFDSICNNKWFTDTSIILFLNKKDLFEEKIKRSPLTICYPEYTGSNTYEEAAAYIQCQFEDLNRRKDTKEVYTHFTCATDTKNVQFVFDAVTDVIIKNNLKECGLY
HCMV NEC inh – disrupts HCMV UL50-UL53 complex binding; HTRF UL50-UL53 interaction, normalized percent inhibition; inhibition, % (no concentration beside the values); 0.15% of 190,000 active;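 active = both replicates at 50% or more, plus weaker picks with an unusually low signal ratio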;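 note: stock transfer was 100 nL into about 20 µL; 0% = negative control wells and 100% = wells with untagged competitor protein; inactives centre near -12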
Sa growth 42C second temp – further read-out of Sa growth 42C, marked with its call; relative growth, %; measured here: growth at 30 °C;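 optical density after 20 h as mean of two plates; 100% = untreated growth and lower means inhibition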
* = called active by the depositor; nt = not tested or not shown; & = joins results of further samples. Outcome played no part in choosing rows. About 0.83% of those tested had a hit in this group.

| compound | HCMV NEC inh | Sa growth 42C second temp | Sa growth 42C | GIV Gai3 FP |
| --- | --- | --- | --- | --- |
| Cc1ccc(-c2nc3nc(C)cc(C)n3c2Nc2ccc(Cl)cc2)cc1 | -4.6 | nt | nt | 101.5 |
| CC(=O)Nc1nonc1-c1nnc(SCC(=O)Nc2cc(C)cc(C)c2)n1-c1ccccc1 | -18.1 | 85.7 | 94.9 | 99.5 |
| O=C(/C=C/c1ccc(Br)o1)OCC(=O)N1CCN(S(=O)(=O)c2ccc3ccccc3c2)CC1 | -27.5 | 97.0 | 101.6 | nt |
| O=C(Cn1c(CN2CCOCC2)nc2ccccc21)N1CCCC1 | 5.0 | nt | nt | 106.2 |
| CC(=O)OCC(=O)Nc1ccccc1C#N | -3.5 | 87.7 | 88.1 | nt |
| CCCN(C(=O)Nc1ccccc1C(=O)OC)c1nc(-c2cccc(Br)c2)cs1 | -10.5 | nt | nt | 105.2 |
| Cc1ccc(NC(=O)c2ccccc2)s1 | 8.2 | 81.9 | 78.0 | nt |
| Clc1cccc(Cl)c1COc1ccccn1 | -8.4 | 100.2 | 87.0 | 108.3 |
| Cc1cc(-c2csc(NCc3ccccc3)n2)c(C)n1CC1CCCO1 (stereo unspecified) | -3.4 | 79.8 | 87.8 | nt |
| COc1ccc(N2CCN(C(=O)C3CCCN(S(=O)(=O)c4ccc5c(c4)CCCN5C(C)=O)C3)CC2)cc1 (stereo unspecified) | nt | 32.2 | 85.2 | 109.0 |
| N#CCCn1c2c(c3ccccc31)CCc1ccccc1-2 | 6.9 | 99.5 | 90.4 | 111.5 |
| N#Cc1cccc(CSc2nnc(SCc3cccc(C#N)c3)s2)c1 | -10.2 | 90.5 | 109.7 | 99.8 |
| Clc1cccc(-c2nnc(CN3CCC(Cc4ccccc4)CC3)o2)c1 | -28.6 | nt | nt | 98.6 |
| CCOc1ccc(C=Nc2ccc(C(=O)O)cc2)c(O)c1 | -2.9 | 80.5 | 90.3 | 104.3 |
| COc1ccccc1C(=O)Nc1nn2c(-c3ccccc3C)nnc2s1 | nt | 65.0 | 88.2 | 102.0 |
| O=S(=O)(c1cccc(CSc2nnc(-c3cccs3)n2-c2ccccc2)c1)N1CCOCC1 | -4.3 | 102.0 | 109.9 | nt |
| Brc1ccc(C=Nc2cccc3ccccc23)s1 | 1.4 | 86.0 | 108.1 | nt |
| CCOC(=O)c1cc(S(=O)(=O)N2CCCC2C(=O)Nc2ccc3c(c2)OCO3)cn1C (stereo unspecified) | -6.6 | nt | nt | 111.4 |
| Cc1ccc(C)c(N2CCN(CCCNC(=O)c3nnc(Cc4c(F)cccc4Cl)o3)CC2)c1 | nt | 79.7 | 83.9 | 104.1 |
| O=c1[nH]cc(C(F)(F)F)cc1Cl | -19.5 | 90.5 | 85.0 | nt |
| CC[n+]1ccc(/C=C/c2ccc(OC)c(OC)c2OC)cc1 | -81.6 | 94.5 | 119.8 | nt |
| CC(NCCN1C(=O)S/C(=C\c2ccc(C)cc2)C1=O)=C(C#N)C#N | -18.8 | 90.8 | 87.9 | nt |
| O=C(CN1C(=O)c2ccccc2C1=O)ON1C(=O)CCC1=O | -35.8 | 87.1 | 86.4 | nt |
| CCOc1ccc(-c2cc(CCCC(=O)Nc3cc(OC)ccc3OC)no2)cc1 | 2.4 | 99.8 | 92.9 | 98.0 |
| COc1ccc(N2CCN(C(=O)C3CCCN(C(=O)c4[nH]c(C)cc4C)C3)CC2)cc1 (stereo unspecified) | -3.6 | nt | nt | 99.3 |
| CN(Cc1ccc(Cl)c(Cl)c1)CN1C(=O)NC2(CCCC2)C1=O | -32.5 | 97.8 | 94.0 | nt |
| O=C(Nc1ccccc1)/C(=C/c1ccccc1)NC(=O)c1ccccc1 | nt | 75.9 | 101.0 | 104.7 |
| Cc1c(-c2nc(-c3ccc(C(C)(C)C)cc3)no2)n(C)oc1=O | -1.3 | 97.8 | 94.8 | 105.1 |
| CCC(Nc1ccc(-c2nc(-c3ccccn3)no2)cc1[N+](=O)[O-])c1ccccc1 (stereo unspecified) | -20.9 | 85.1 | 96.5 | 97.2 |
| CC1=C(C(=O)OCCOC(C)C)C(c2coc3ccccc3c2=O)C2=C(CCCC2=O)N1 (stereo unspecified) | -28.1 | nt | nt | 101.6 |

As a short view, some entries already given:
| compound | HCMV NEC inh | Sa growth 42C second temp | Sa growth 42C | GIV Gai3 FP |
| --- | --- | --- | --- | --- |
| COc1ccc(N2CCN(C(=O)C3CCCN(C(=O)c4[nH]c(C)cc4C)C3)CC2)cc1 (stereo unspecified) | -3.6 | nt | nt | 99.3 |
| CN(Cc1ccc(Cl)c(Cl)c1)CN1C(=O)NC2(CCCC2)C1=O | -32.5 | 97.8 | 94.0 | nt |
| O=C(Nc1ccccc1)/C(=C/c1ccccc1)NC(=O)c1ccccc1 | nt | 75.9 | 101.0 | 104.7 |
| Cc1c(-c2nc(-c3ccc(C(C)(C)C)cc3)no2)n(C)oc1=O | -1.3 | 97.8 | 94.8 | 105.1 |

Complete entries from above. Values in the order: HCMV NEC inh	Sa growth 42C second temp	Sa growth 42C	GIV Gai3 FP
Clc1cccc(Cl)c1COc1ccccn1 in the list: -8.4	100.2	87.0	108.3
CCOC(=O)c1cc(S(=O)(=O)N2CCCC2C(=O)Nc2ccc3c(c2)OCO3)cn1C (stereo unspecified) in the list: -6.6	nt	nt	111.4
Cc1c(-c2nc(-c3ccc(C(C)(C)C)cc3)no2)n(C)oc1=O in the list: -1.3	97.8	94.8	105.1
CC(=O)Nc1nonc1-c1nnc(SCC(=O)Nc2cc(C)cc(C)c2)n1-c1ccccc1 in the list: -18.1	85.7	94.9	99.5

(cont.)
| compound | HCMV NEC inh | Sa growth 42C second temp | Sa growth 42C | GIV Gai3 FP |
| --- | --- | --- | --- | --- |
| COc1ccc(NC(=O)N2CCCC2C(=O)Nc2ccccc2)cc1 (stereo unspecified) | -5.1 | 75.3 | 107.3 | 100.5 |
| COc1cc(NC(=O)CCS(=O)(=O)c2ccc3c(c2)CC(=O)N3C)cc(OC)c1OC | nt | 92.8 | 85.2 | 102.1 |
| Cc1nc2cc(-c3ccccc3)nn2c(C)c1CCC(=O)N1CCCC1 | nt | 96.2 | 102.3 | 101.3 |
| Cc1cc(C)cc(NC(=O)C2CC2C)c1 (stereo unspecified) | -11.7 | 86.8 | 110.1 | nt |
| Cc1ccc(CC2S/C(=N/c3ccccn3)NC2=O)cc1 (stereo unspecified) | 6.1 | nt | nt | 99.0 |
| Cc1noc(C)c1CCNC(=O)c1ccc(NC(=O)C2=CSCCO2)cc1 | -20.8 | 94.8 | 105.3 | 103.5 |
| CCCn1c(=O)c2ccc(Cl)cc2n2c(=O)n(CC(=O)N3CCN(c4ccc(F)cc4)CC3)nc12 | -27.0 | nt | nt | 100.2 |
| COc1ccc(NC(=O)c2c(NCc3cccc(OC)c3)sc3c2CCCC3)cc1 | nt | 97.1 | 79.8 | 101.8 |
| O=c1c(S(=O)(=O)c2ccc(F)c(Cl)c2)c[nH]c2ccc(F)cc12 | -0.8 | nt | nt | 103.7 |
| Cc1cccc(N2CCN(C(=O)CC3(CC4=NS(=O)(=O)c5ccccc5N4)CCCC3)CC2)c1C | nt | 81.0 | 109.9 | 101.0 |
| O=C(CSc1nnc(-c2ccc(Cl)cc2)o1)OCC(=O)c1ccccc1 | 17.5 | 88.5 | 87.2 | nt |
| O=S(=O)(c1cccc(C(F)(F)F)c1)N1CCCC(n2nnc3ccccc32)C1 (stereo unspecified) | -13.6 | 89.4 | 91.8 | 103.1 |
| Cc1ccc(CCNC(=O)C2CCCN(c3nnc(C)c4c(C)n(-c5ccccc5)nc34)C2)cc1 (stereo unspecified) | nt | 92.6 | 108.5 | 104.8 |
| CC1CCCC(C)N1/N=C/c1ccc(C#N)cc1 (stereo unspecified) | -28.3 | 90.4 | 97.8 | nt |
| CC1=C(c2ccc(C(C)C)cc2)S(=O)(=O)N=C1N1CCC(C(=O)NCc2ccco2)CC1 | nt | 87.7 | 107.9 | 103.3 |
| O=C(CCCn1c(=S)[nH]c2c(sc3ccccc32)c1=O)NC1CCCCCC1 | nt | 82.8 | 140.3 | 106.2 |
| COc1ccccc1OCCn1cc(/C=C2/SC(=S)NC2=O)c2ccccc21 | nt | 96.5 | 102.1 | 102.7 |
| O=C(/C=C/c1ccco1)Oc1cccc(Oc2ccccc2)c1 | -3.3 | 95.6 | 78.0 | nt |
| Cc1noc(C)c1-c1nc(CS(=O)(=O)Cc2ccc(Cl)cc2)no1 | 43.3 | 92.1 | 101.3 | 107.7 |
| CC(C)CNC(=O)c1ccc(COc2ccc(Cl)cc2Cl)o1 | -17.8 | 59.6 | 75.4 | 106.2 |
| CCCNC(=O)CN1CCN(c2ccc(C(=O)O)cc2NC(=O)c2ccccc2Cl)CC1 | -6.0 | nt | nt | 99.7 |
| CC(C)N1CC2(c3ccccc3)CN(C(C)C)CC(c3ccccc3)(C1)C2=O | -12.6 | 83.6 | 107.2 | 99.7 |
| Cc1c(CC(=O)N2CCCC2)c(=O)oc2cc(O)ccc12 | -28.9 | 91.1 | 94.6 | 102.2 |
| COc1ccc(OCC(=O)Nc2nnc3n2CCS3)cc1 | nt | 88.5 | 97.8 | 99.1 |
| CCCN1C=C(OC(=O)c2ccccc2Cl)c2ccccc2S1(=O)=O | -5.0 | nt | nt | 97.8 |
| CCc1cccc(-n2c(N3CCOCC3)n[nH]c2=S)c1 | 4.1 | 93.1 | 102.5 | nt |
| O=C(Cc1ccc(F)cc1)Nc1nnc2n1CCS2 | nt | 92.3 | 107.8 | 100.7 |
| COc1ccccc1C(=O)COC(=O)Cn1nnc2ccccc21 | -26.0 | 92.8 | 97.2 | nt |
| O=C1NC(c2ccccc2)(C(F)(F)F)SC2=NCCCN12 (stereo unspecified) | nt | 86.8 | 99.2 | 92.4 |
| Cn1nc(-c2ccccc2)ccc1=O | -61.1 | 95.1 | 95.8 | 100.5 |

A draw from above in order of number of heavy atoms, descending.
| compound | HCMV NEC inh | Sa growth 42C second temp | Sa growth 42C | GIV Gai3 FP |
| --- | --- | --- | --- | --- |
| Cc1ccc(CCNC(=O)C2CCCN(c3nnc(C)c4c(C)n(-c5ccccc5)nc34)C2)cc1 (stereo unspecified) | nt | 92.6 | 108.5 | 104.8 |
| Cc1nc2cc(-c3ccccc3)nn2c(C)c1CCC(=O)N1CCCC1 | nt | 96.2 | 102.3 | 101.3 |
| CC1CCCC(C)N1/N=C/c1ccc(C#N)cc1 (stereo unspecified) | -28.3 | 90.4 | 97.8 | nt |

(more compounds)
| compound | HCMV NEC inh | Sa growth 42C second temp | Sa growth 42C | GIV Gai3 FP |
| --- | --- | --- | --- | --- |
| Cc1csc(NC(=O)C(CC(C)C)NS(=O)(=O)c2ccc3c(c2)oc(=O)n3C)n1 (stereo unspecified) | -0.8 | 84.3 | 104.7 | 104.6 |
| COc1ccc(Cc2nn3c(-c4cccs4)nnc3s2)cc1OC | -34.9 | 78.3 | 79.2 | 102.2 |
| CCOC(=O)c1cnc2c(-c3ccc(OC)c(OC)c3)c(C)nn2c1C | -35.6 | nt | nt | 105.0 |
| Cc1ccc(CSc2nnc3n(CC(C)C)c(=O)c4cc(Cl)ccc4n23)cc1 | 7.5 | nt | nt | 102.0 |
| Cc1oc2c(c1C(=O)N1CCc3ccccc3C1)C(=O)c1ccccc1C2=O | nt | 2.5* | 6.5* | 95.0 |
| CCOC(=O)N1CCC(C(N)=O)CC1 | -23.5 | 88.8 | 89.2 | 100.4 |
| CCOC(=O)C1CCN(C(=O)/C=C/c2ccc(F)cc2)CC1 | -6.9 | 93.7 | 107.0 | nt |
| O=c1c2cc3c(cc2n(Cc2ccc(F)cc2)c(=O)n1Cc1nc(-c2ccccc2)no1)OCO3 | nt | 93.6 | 94.9 | 104.9 |
| CCc1nnc2c3ccccc3nc(Nc3cc(C)ccc3OC)n12 | -8.8 | nt | nt | 105.7 |
| CC(C)c1ccc(NC(=S)Sc2ccc(F)cc2F)cc1 | -15.2 | 5.2 | 47.2 | 102.9 |
| Cn1ccnc1C1(O)CCNCC1 | -8.4 | 92.4 | 73.3 | 101.6 |
| O=C(c1csc(-c2ccccc2)n1)N1CCN(S(=O)(=O)c2ccc3c(c2)OCCCO3)CC1 | -15.3 | 81.6 | 107.0 | nt |
| O=c1cc(CSc2nnc(-c3ccccc3F)o2)nc2sccn12 | -40.0 | nt | nt | 96.8 |
| O=C(Nc1nnc(-c2ccccc2)s1)c1ccc(Br)c(S(=O)(=O)N2CCOCC2)c1 | -8.0 | nt | nt | 106.0 |
| CS(=O)(=O)CCC(C(=O)Nc1ccccc1)N1Cc2ccccc2C1=O (stereo unspecified) | -15.5 | 86.7 | 107.5 | 102.2 |
| COc1ccc(/C=C/C(=O)N=c2sccn2C)c(OC)c1 | -21.3 | 90.0 | 119.0 | nt |
| CC1(C)CC(=O)C2=C(C1)C(c1cccnc1)Nc1ccc3ccccc3c12 (stereo unspecified) | nt | 86.1 | 106.8 | 101.9 |
| COc1ccc(C(=O)N2CC(OCc3ccc(Cl)cc3)C2)c(OC)c1 | -21.2 | nt | nt | 102.1 |
| COc1ccc(Cn2ccc3nc(C)c(C(=O)Nc4ccc(OC)c(OC)c4)cc3c2=O)cc1 | -21.4 | 83.5 | 96.9 | 100.3&99.0 |
| CCCC(C)C(=O)Nc1ccc(-c2nc3ccccc3o2)cc1 (stereo unspecified) | -12.8 | 98.3 | 107.3 | 101.0 |
| O=C(Nc1cccc(NC(=S)NC(=O)c2cccc3c(Br)cccc23)c1)c1ccco1 | 2.5 | 82.7 | 140.9 | 106.9 |
